# Screening results (PubChem)
# VACV mCherry inh – qHTS for Stage-Specific Inhibitors of Vaccinia Orthopoxvirus: mCherry Reporter Primary qHTS | Potency, µM (top dose mostly 36.5 µM), for the others: at the top dose activity change, negative = inhibition, hits mostly inhibitors | Vaccinia virus mCherry reporter infection, fluorescence; about a quarter of the inactives have no number | AID 720579, 2013 | 310,000 tested, 0.63% active; active = well fitted inhibition curve with a large enough effect; inconclusive = small, poorly fitted or top-dose-only effect; inactive = no such curve, though single readings can be large or run the other way; tested in A549 cells; further: nearly all actives have a fitted effect of over 35% in size; inactives centre near -10
# VACV Venus inh – qHTS for Stage-Specific Inhibitors of Vaccinia Orthopoxvirus: Venus Reporter Primary qHTS | Vaccinia virus Venus reporter expression, fluorescence | Potency, µM (doses to about 36.5 µM), without a hit: at the top dose activity change, negative = inhibition, usual class: inhibitors | 330,000 tested, 0.46% active | AID 720580, 2013; active means well fitted inhibition curve with a large enough effect; inconclusive means small, poorly fitted or top-dose-only effect; inactive means no such curve, though single readings can be large or run the other way; tested in A549 cells; further: nearly all actives have a fitted effect of over 30% in size; inactives centre near -10
# * marks the source's active call; other numbers are inactive results; i = inactive; ? = inconclusive; . = not tested or not shown; & = joins results of further samples; [ ] = remark or other dose. On the % scale 0 is the no-effect control and ±100 the full control effect; potency means the concentration at half of the fitted maximal effect.
SMILES | VACV Venus inh | VACV mCherry inh
NS(=O)(=O)c1ccc(CCNC(=O)C2CCN(S(=O)(=O)c3cnc[nH]3)CC2)cc1 | -9% | -11%
Cc1nc2cc(NC(=O)c3ccc(S(=O)(=O)N(C)c4ccccc4)cc3)ccc2o1 | -10% | -4%
Cc1nn(C)c(C)c1C1C(C#N)=C(N)Oc2n[nH]c(C)c21 (configuration not stated) | -3% | i
CC1Cc2ccccc2N1CC(=O)Nc1cc(S(=O)(=O)N2CCOCC2)ccc1Cl (configuration not stated) | -17% | -14%
CCOC(=O)C1=C(C)NC2=C(C(=O)c3ccccc32)C1c1cccc2ccccc12 (configuration not stated) | 1% | ?
Cc1noc(NS(=O)(=O)c2ccc(NC(=O)CCN3C(=O)c4ccccc4C3=O)cc2)c1C | -6% | i
O=C(O)CCCNC(=O)c1cncc(Br)c1 | 3% | .
CC(=O)N1CCc2cc(Br)cc(S(=O)(=O)N3CCN(c4cccc(C(F)(F)F)c4)CC3)c21 | -3% | -9%
O=C(O)COc1ccc2nsnc2c1Cl | -2% | i
Cc1csc(NC(=O)CCC(=O)N(CC(=O)NC2CCCC2)Cc2ccco2)n1 | -4% | -17%
Clc1ccc(C2=NN=C3COc4ccccc4N3C2)cc1 | -17% | -18%
CCN(CC(=O)NCc1ccc(Cl)cc1)C(=O)/C=C/c1ccccc1 | 0% | 5%
O=C(CCCn1c(SCc2cccc([N+](=O)[O-])c2)nc2ccccc2c1=O)NCC1CCCO1 (configuration not stated) | -27% | -10%
Cc1ccc(C)c(CSc2nnc(C)n3c2cc2sccc23)c1 | -10% | -10%
O=C(CCCc1c[nH]c2ccccc12)N1CCN(c2ccc(N3CCOCC3)nn2)CC1 | -28% | -20%
COc1ccccc1NC(=O)Nc1nc(C(N)C2CCCCC2)cs1 (configuration not stated) | -29% | ?
CCOC(=O)c1c(=O)n(O)c2ccc(C)cc2[n+]1[O-] | -10% | -23%
O=C(COC(=O)COc1ccc(Br)cc1)NCc1ccc2c(c1)OCO2 | 2% | i
Cc1cccc(COc2ccc(S(=O)(=O)N3CCOCC3)cc2[N+](=O)[O-])c1 | -20% | -4%
S=C(N/N=C/c1cccs1)NC1CC2CCC1C2 (configuration not stated) | -5% | -15%
C=CCOc1ccc(/C=C/C(=O)OCC(=O)Nc2c(C)n(C)n(-c3ccccc3)c2=O)cc1 | 2% | -20%
NC1C[C@H]1c1ccccc1 (some centres not stated) | -11% | i
Cc1ccc(S(=O)(=O)N2CCCC2C(=O)Nc2nccs2)cc1 (configuration not stated) | -19% | .
O=C(c1cccc(C(=O)N2CCc3ccccc32)n1)N1CCc2ccccc21 | -7% | .
COc1cccc(C2c3cc4c(cc3OC(NNC(N)=O)C2C)OCO4)c1O (configuration not stated) | ? | ?
O=C(COC(=O)c1ccccc1)Nc1cccc(S(=O)(=O)N2CCOCC2)c1 | -11% | i
COc1ccc(NS(=O)(=O)c2ccc3c(c2)CC(C)N3C(=O)C2CCC2)cc1OC (configuration not stated) | -25% | -24%
O=S(=O)(NCC1OCCc2ccccc21)c1ccc(S(=O)(=O)N2CCOCC2)cc1 (configuration not stated) | -10% | -20%
CCOc1ccccc1NC(=O)CCNS(=O)(=O)c1ccc2[nH]c(=O)oc2c1 | -6%[7.34 µM] | i[7.34 µM]
Cc1cc(C)nc(NS(=O)(=O)c2ccc(NC(=O)CSc3nc4ccccc4[nH]3)cc2)n1 | -6% | -9%
CCn1c(C(=O)Nc2ccsc2C(=O)OC)cc2sc(Cl)cc21 | -8% | i
Cc1ccc(S(=O)(=O)N2CCN(c3nc(-n4cccn4)nc4ccccc34)CC2)cc1 | -8% | -9%
O=C(O)C1CCCCC1C(=O)Nc1ccc(Cl)cc1 (configuration not stated) | -12% | i
O=C(Nc1cccc(Oc2ccccc2)c1)C1Cc2c(-c3ccc4c(c3)OCO4)ccnc2O1 (configuration not stated) | -10% | ?
COc1ccc(-n2c(/C=C3\C(=O)N(C)c4ccccc43)nc3ccccc3c2=O)cc1 | -5% | -2%
CN(Cc1cnn(C)c1)C(=O)C1CCC(=O)N(Cc2cccc(C(F)(F)F)c2)C1 (configuration not stated) | -7% | -12%
O=C(Cn1nc(-c2ccco2)ccc1=O)Nc1ccc(Cl)c(Cl)c1 | -11% | -20%
CC1=C(C(=O)OCc2ccc(C)cc2)C(c2c(Cl)cccc2Cl)CC(=O)N1 (configuration not stated) | 7% | 6%
C=CCN(c1ccc(C(=O)Nc2ccc3c(c2)n(C)c(=O)n3C)cc1)S(C)(=O)=O | -12% | -12%
O=C(CCc1nc2ccccc2c(=O)[nH]1)OCCOc1ccc(Cl)cc1 | -16% | -2%
O=C(CS(=O)(=O)c1ccc(F)cc1)Nc1nccs1 | -3% | i
S=c1[nH]nc(COc2ccccc2)n1/N=C/c1cccs1 | -15% | -14%
Cc1oc2ncn(C)c(=O)c2c1C(=O)NCc1ccccc1 | -3% | -14%
COc1ccc(CNCCC(c2ccc(OC(C)C)cc2)c2ccccc2OC)cc1OC (configuration not stated) | -17% | -11%
CCOC(=O)c1c(NC(=O)COC(=O)CCOc2ccc(C)cc2)sc(C(=O)N(C)C)c1C | -24% | -11%
COc1ccccc1C(=O)Nc1ccc(OCc2cc(=O)n3ccsc3n2)cc1 | -17% | -11%
COc1ccccc1N1C(=O)CC(Sc2nc(C)cc(C)n2)C1=O (configuration not stated) | -9% | 2%
COc1cc(NC(=O)C(C)C)ccc1NC(=O)c1ccco1 | -8% | i
Fc1ccc(CNCCc2c[nH]c3ccccc23)cc1 | -13% | ?
CCOC(=O)c1[nH]c(C)c(CCC(=O)N2CCN(c3cc(Cl)ccc3C)CC2)c1C | -22% | -14%
O=C(CSc1ccc(-c2ccc(Br)cc2)nn1)NC1CCCC1 | -20% | -1%
c1ccc(N=Nc2ccc3cccccc2-3)cc1 | -2% | -24%
CCN1CCN(Cc2ccc(NC(=O)Nc3ccccc3Cl)cc2)CC1 | -3% | 26%
COC(=O)C1Cc2ccccc2CN1S(=O)(=O)c1ccc(C)cc1 (configuration not stated) | -3% | -10%
Nc1nc(N)c2cc(Sc3cccc(C(F)(F)F)c3)ccc2n1 | 5µM* | 7.1µM*
O=C(c1ccc2ccccc2c1)N1CCN(c2ccccn2)CC1 | -18% | -10%
S=c1[nH]c2cc(Cl)ccc2s1 | -13% | -15%
COc1ccc(-n2ccn(CC(=O)NCc3ccc(C)cc3)c(=O)c2=O)cc1OC | -15% | -7%
Cn1c(-c2ccc(Cl)nc2)nc2cc(Cl)ccc21 | -5% | -13%
CC(=C/c1ccccc1)/C=N/NC(=O)c1cc(C)oc1C | -12% | -19%

# (list continues)
SMILES | VACV Venus inh | VACV mCherry inh
Cc1cccc(N(CC(=O)NC2CCCC2)C(=O)c2nsc(Cl)c2Cl)c1C | -23% | -20%
CCOc1ccc(NC(=O)CC2SC(=O)N(c3ccccc3)C2=O)cc1 (configuration not stated) | -11% | i
COc1cccc(NC(=O)CSC2=Nc3ccccc3C3=NC(CCC(=O)NCc4ccco4)C(=O)N23)c1 (configuration not stated) | -12% | i
COc1cc(/C=N/NC2=NS(=O)(=O)c3ccccc32)cc(OC)c1OC | -5% | 1%
CCC1(c2ccccc2)NC(=O)N(CC(=O)Nc2nnc(C3CC3)s2)C1=O (configuration not stated) | -12% | i
CC(C)(NO)/C(=N/O)c1cccs1 | -4% | .
CCCOc1ccc(N2C(=O)CC(N3CCN(c4ccc([N+](=O)[O-])cc4)CC3)C2=O)cc1 (configuration not stated) | -4% | -7%
Cc1ccc(-c2nc3ccc(Br)cn3c2Cc2cccc(Cl)c2)cc1 | 5% | 1%
Cc1c(NC(=O)CC(C)C)cccc1-c1nc2cccnc2s1 | -11% | i
Cc1ccc(NC(=O)CCC(=O)N2CCOc3ccccc32)c(Cl)c1 | -10%&-11% | -10%&-10%
Cc1c(CCO)sc[n+]1CCc1ccccc1 | -18% | -19%
Nc1sc(-c2ccccc2)cc1C(=O)N1CCN(c2ccccc2)CC1 | -4% | ?
COc1cccc(NC(=O)COC(=O)COc2cccc3c2OC(C)(C)C3)c1 | -13% | i
COc1ccc(C(=O)NC(=S)NNC(=O)c2ccc3ccccc3n2)cc1 | -46% | -42%
COC(=O)c1ccccc1NC(=O)CCn1c(=O)oc2ccccc21 | -8% | -13%
Cc1nc(C)c(-c2csc(NCc3ccco3)n2)s1 | -12% | -19%
CCc1cccc(NC(=O)c2ccc(Cn3nc(C)cc3C)o2)c1 | -11% | -5%
COc1ccc(-c2nn(-c3ccccc3)cc2C(=O)NCCCn2ccnc2)cc1 | -27% | 0%
Cc1ccc2nc(N(CCN(C)C)C(=O)C3CCN(S(=O)(=O)c4cccs4)CC3)sc2c1 | -18% | -21%
N#Cc1nc(COc2ccccc2Cl)oc1N1CCCCCC1 | -16% | ?

# Filtered by structure: the compounds so far containing a COOH group.
SMILES | VACV Venus inh | VACV mCherry inh
O=C(O)CCCNC(=O)c1cncc(Br)c1 | 3% | .
O=C(O)COc1ccc2nsnc2c1Cl | -2% | i
O=C(O)C1CCCCC1C(=O)Nc1ccc(Cl)cc1 (configuration not stated) | -12% | i

# (list continues)
SMILES | VACV Venus inh | VACV mCherry inh
CC1NC(=O)NC1CCCCCC(=O)NCCc1ccccc1 (configuration not stated) | 1% | -21%
CCC(C)(C)NC(=O)C(c1cccn1C)N(C(=O)Cn1nnc2ccccc21)c1ccc(NC(C)=O)cc1 (configuration not stated) | -6% | -1%
COC(=O)CNC(=O)COC(=O)c1ccc(Cl)nc1 | -15% | i
CC1=NN(c2ccccc2)C(=O)/C1=C\c1cc(C)n(-c2cccnc2)c1C | -6% | i
c1ccc(CSc2nnc(-c3cccs3)o2)cc1 | -11% | i
O=C(Nc1ccccc1N1CCN(c2ccc(F)cc2)CC1)C1CCCCC1 | -5% | -5%
CCc1ccc([C@H]2C[C@H]3[C@H]4C(=O)N(c5ccccc5)C(=O)[C@H]4CC(=O)[C@@H]3CN2S(=O)(=O)c2ccc(C)cc2)cc1 | -8% | 4%
O=C(CN1CCN(Cc2ccccc2)CC1)N/N=C/c1ccc(Br)s1 | -13% | -19%
CC(=O)N(CN1C(=O)C2CC=CCC2C1=O)c1cccc(Cl)c1 (configuration not stated) | ? | .
COC(=O)c1cn(NC(=O)C2CCCCC2)c(=O)c2ccccc12 | -13% | -10%
COc1ccc(CC(=O)Nc2ccc(OC)c(NC(=O)c3ccco3)c2)cc1 | -18% | -5%
CCN(CC)c1ccc(C(=O)OCC(=O)Nc2cccc(S(=O)(=O)NC3=NCCCCC3)c2)cc1 | -25% | -18%
CC1CC(=Cc2ccc([N+](=O)[O-])cc2)C(=O)O1 (configuration not stated) | -8% | -22%
CCOC(=O)c1nn(-c2ccccc2C)c(=O)c2c(N)scc12 | -16% | -17%
COCCCNC(=O)c1c(F)c(F)c(F)c(F)c1F | ? | .
CCN(CC)C(=O)c1ccc(NS(=O)(=O)c2ccc3[nH]c(=O)[nH]c3c2)cc1 | -14% | i
Cc1ccccc1Nc1c(-c2c[nH]c3ccccc23)nc2ccc(Cl)cn12 | -15% | -12%
Cc1ccc(OCC(=O)NCCS(=O)(=O)N2CCN(c3ccccc3)CC2)cc1 | -10% | -18%
COc1ccccc1-n1nnnc1SC(C)C(=O)NC1CCCC1 (configuration not stated) | -21% | -5%
CCn1ccnc1CN1CCCC(C(=O)c2cccc(C(F)(F)F)c2)C1 (configuration not stated) | -14% | -8%
CCOC(=O)Cc1ccc(NC(=O)n2ncc3cc(Cl)ccc32)cc1 | -17% | -20%
CCN(CC)CCOC(=O)C1c2ccccc2Oc2ccccc21 | -13% | -1%
Cc1nn(C)cc1/C=N\NC(=O)c1csc2c1CCCC2 | -6% | -13%
CC(C)[C@H](CO)NC(=O)[C@H]1O[C@@H](n2ccc(=O)[nH]c2=O)[C@H](O)[C@@H]1O | 12% | 2%
CCc1nnc(NC(=O)c2cc(S(=O)(=O)N3CCCCC3)ccc2N2CCOCC2)s1 | -8% | i
CCCC(=O)NC(NC(=S)Nc1ccc(S(N)(=O)=O)cc1)C(Cl)(Cl)Cl (configuration not stated) | -7% | -13%
C#CCOCCOCCOCCNc1nc(N2CCN(C(=O)CCCCCCCCCCNC(=O)[C@@H]([C@H](C)O)n3cc(C)nn3)CC2)nc(N2CCN(C(=O)CCCCCCCCCCNC(=O)[C@@H]([C@H](C)O)n3cc(C)nn3)CC2)n1 | ? | -7%
COc1ccccc1CNC(=O)CN1C(=O)COc2ccc(S(=O)(=O)Nc3ccccc3)cc21 | -5% | -10%
CN(CCC#N)C(=O)c1cc2c(s1)-c1ccccc1SC2 | -29% | ?
O=c1[nH]c(SCc2nc3ccccc3n2Cc2ccccc2)nc2ccccc12 | -24% | .

# One compound at a time (already shown). Screens in order: VACV Venus inh	VACV mCherry inh
# `Cc1nn(C)cc1/C=N\NC(=O)c1csc2c1CCCC2` across the screens: -6%	-13%
# `Cc1nc(C)c(-c2csc(NCc3ccco3)n2)s1` across the screens: -12%	-19%
